Source: PubChem BioAssay (ICCB-Longwood Screening Facility, Harvard Medical School)
Choline anaer gr – choline-fed anaerobic bacterial growth inhibition; Gram-negative bacterium anaerobic choline minimal medium, absorbance growth; hits give low values; many inactives read as strong as hits in the columns shown; calls only; hit rate 0.2% among 55,000; AID 1963822;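 active means growth z-score on choline under -2 at 7 or 20 h with little or no fall on glycerol, limits in tiers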;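 further: stock transfer was 300 nL into about 50 µL; the organism is E. coli; final concentration not given here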
Choline anaer gr early – second read-out of Choline anaer gr, no call of its own (marks repeat the call); z-score; measured here: choline growth z-score, timepoint 1;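 score of optical density at 7 h as mean of two plates; lower means less growth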
* marks the source's active call; other numbers are inactive results; i = inactive; & = joins results of further samples.

Sample of the layout (18 entries):
Below each compound – Choline anaer gr	Choline anaer gr early
N#Cc1ccc2[nH]cc(CCCCN3CCN(c4ccc5oc(C(N)=O)cc5c4)CC3)c2c1
    i	0.26
CC(=O)Nc1ccc(O)cc1
    i	0.55&0.69
COc1ccccc1OCCNCC(O)COc1cccc2[nH]c3ccccc3c12 (stereo not given)
    i	-0.46&-1.18&-1.1&-0.31&-0.05
C=C1c2cccc(O)c2C(O)=C2C(=O)[C@]3(O)C(O)=C(C(N)=O)C(=O)[C@@H](N(C)C)[C@@H]3[C@@H](O)[C@H]12
    i	-2.73
Cc1nc(N2CCCC(C(=O)NC(C)C)C2)c2c(C)c(C)oc2n1 (stereo not given)
    i	-0.18
Cc1noc(C2CN(C(=O)NC(C)(C)C)CC23CCOCC3)n1 (stereo not given)
    i	0.26
O=C(O)CCC/C=C\CC1C(=O)C[C@@H](O)[C@@H]1/C=C/[C@@H](O)COc1ccccc1 (stereo not given in full)
    i	0.97
Cn1c(=O)c2c(ncn2CCO)n(C)c1=O
    i	-0.15
CC(=O)Nc1ccccc1
    i	0.49
Cc1nc2nc(C)c(CCC(=O)N3CCC(Cc4ccccc4)CC3)c(C)n2n1
    i	0.51
CC(C)N(CC1OC(n2cnc3c(N)ncnc32)C(O)C1O)C1CC(CCc2nc3ccc(C(C)(C)C)cc3[nH]2)C1 (stereo not given)
    i	1
O=C(C1CCN(c2nc(-c3ccc(Cl)cc3)no2)CC1)N1CCN(c2ncccn2)CC1
    i	-1.11
CN1CCN(C2CCN(C(=O)Nc3cc(Oc4ccc(NC(=O)C5(C(=O)Nc6ccc(F)cc6)CC5)c(F)c4)ccn3)CC2)CC1
    i	0.88
CCOc1ccc(-c2cc3c(SCC)nccn3n2)cc1
    i	-0.45
CCCCC1C(=O)N(c2ccccc2)N(c2ccccc2)C1=O
    i	1.02&0.51&0.68&0.57
CCOC(=O)C1CCN(c2ccc3nnc(CCc4nc(-c5ccc(F)cc5)no4)n3n2)CC1
    i	-0.38
COc1ccc(C2CC(=O)N(c3cccc(Br)c3)C(=O)C2)cc1
    i	0.81
CC1Sc2ccc(S(=O)(=O)N3CCC(C(=O)N4CCc5ccccc5C4)CC3)cc2NC1=O (stereo not given)
    i	0.85

The listing, from the start:
Below each compound – Choline anaer gr	Choline anaer gr early
N#Cc1ccc2[nH]cc(CCCCN3CCN(c4ccc5oc(C(N)=O)cc5c4)CC3)c2c1
    i	0.26
CC(=O)Nc1ccc(O)cc1
    i	0.55&0.69
COc1ccccc1OCCNCC(O)COc1cccc2[nH]c3ccccc3c12 (stereo not given)
    i	-0.46&-1.18&-1.1&-0.31&-0.05
C=C1c2cccc(O)c2C(O)=C2C(=O)[C@]3(O)C(O)=C(C(N)=O)C(=O)[C@@H](N(C)C)[C@@H]3[C@@H](O)[C@H]12
    i	-2.73
Cc1nc(N2CCCC(C(=O)NC(C)C)C2)c2c(C)c(C)oc2n1 (stereo not given)
    i	-0.18
Cc1noc(C2CN(C(=O)NC(C)(C)C)CC23CCOCC3)n1 (stereo not given)
    i	0.26
O=C(O)CCC/C=C\CC1C(=O)C[C@@H](O)[C@@H]1/C=C/[C@@H](O)COc1ccccc1 (stereo not given in full)
    i	0.97
Cn1c(=O)c2c(ncn2CCO)n(C)c1=O
    i	-0.15
CC(=O)Nc1ccccc1
    i	0.49
Cc1nc2nc(C)c(CCC(=O)N3CCC(Cc4ccccc4)CC3)c(C)n2n1
    i	0.51
CC(C)N(CC1OC(n2cnc3c(N)ncnc32)C(O)C1O)C1CC(CCc2nc3ccc(C(C)(C)C)cc3[nH]2)C1 (stereo not given)
    i	1
O=C(C1CCN(c2nc(-c3ccc(Cl)cc3)no2)CC1)N1CCN(c2ncccn2)CC1
    i	-1.11
CN1CCN(C2CCN(C(=O)Nc3cc(Oc4ccc(NC(=O)C5(C(=O)Nc6ccc(F)cc6)CC5)c(F)c4)ccn3)CC2)CC1
    i	0.88
CCOc1ccc(-c2cc3c(SCC)nccn3n2)cc1
    i	-0.45
CCCCC1C(=O)N(c2ccccc2)N(c2ccccc2)C1=O
    i	1.02&0.51&0.68&0.57
CCOC(=O)C1CCN(c2ccc3nnc(CCc4nc(-c5ccc(F)cc5)no4)n3n2)CC1
    i	-0.38
COc1ccc(C2CC(=O)N(c3cccc(Br)c3)C(=O)C2)cc1
    i	0.81
CC1Sc2ccc(S(=O)(=O)N3CCC(C(=O)N4CCc5ccccc5C4)CC3)cc2NC1=O (stereo not given)
    i	0.85
Cc1cccc(C)c1NC(=O)C1CCCCN1C (stereo not given)
    i	0.26&0.6
Cc1cccc(NC(=O)C2CCCN(c3ncnc4onc(-c5ccc(F)cc5)c34)C2)n1 (stereo not given)
    i	-0.66
CCN(CC)c1nc2ccsc2c(=O)n1CCC(=O)NCCc1c[nH]c2ccccc12
    i	0.48
Cc1cc2c(cc1CC(=O)c1sccc1S(=O)(=O)Nc1onc(C)c1Cl)OCO2
    i	-0.22
O=S(=O)(c1ccccc1-c1nc(-c2ccccc2)no1)N1CCN(c2ccccc2)CC1
    i	-0.16
CC(C)OC(=O)Cn1nc2c(-c3nc(-c4ccc(Cl)cc4)no3)cccn2c1=O
    i	-0.22
CCCN1CCN(c2cc(C(=O)O)c3cc(NS(=O)(=O)c4cc(C)c(C)cc4C)ccc3n2)CC1
    i	-0.97
N.N.N.N.N.N.N.N.N.N.N.N.N.N.O.O.[Cl-].[Cl-].[Cl-].[Cl-].[Cl-].[Cl-].[Ru+4].[Ru+5].[Ru+5]
    i	1.04
Cc1cccc2c1cnn2C(=O)CCC(=O)N1CCN(c2ccccn2)CC1
    i	0.93
NC(N)=NC(=O)Cc1c(Cl)cccc1Cl
    i	-1.85&-0.08&0.58
COc1ccc(CN2CCN(C(c3ccc(F)cc3)c3ccc(F)cc3)CC2)c(OC)c1OC
    i	-0.01&1.27&0.83&0.53&-0.6
CCCC(=O)O[C@@]1(C(=O)COC(C)=O)CC[C@H]2[C@@H]3CC(F)C4=CC(=O)C=C[C@]4(C)[C@]3(F)C(O)C[C@@]21C (stereo not given in full)
    i	0.81

Structural class: the entries above containing two or more sulfur atoms
Below each compound – Choline anaer gr	Choline anaer gr early
CC1Sc2ccc(S(=O)(=O)N3CCC(C(=O)N4CCc5ccccc5C4)CC3)cc2NC1=O (stereo not given)
    i	0.85
Cc1cc2c(cc1CC(=O)c1sccc1S(=O)(=O)Nc1onc(C)c1Cl)OCO2
    i	-0.22

Other compounds.
Below each compound – Choline anaer gr	Choline anaer gr early
NC(=NCc1ccccc1)NC(=O)c1nc(Cl)c(N)nc1N
    i	0.39&-0.46&-0.5&-0.28
Cc1ccccc1C#Cc1ccc(CCC(=O)O)cc1
    i	0.61
COC(c1ccccc1)(c1ccccc1)C(Oc1nc(C)cc(C)n1)C(=O)O (stereo not given)
    i	0.94
CCCCCCCC/C=C\CCCCCCCC(=O)O
    i	0.59
O=C(O)CCC/C=C\C[C@@H]1[C@@H](/C=C/[C@H](O)CCc2ccccc2)[C@H](O)C[C@@H]1O
    i	0.1
[K+]
    i	0.16
Cc1nc2ncnn2c(C)c1CCC(=O)N1CCC(Cc2ccccc2)CC1
    i	-0.05
CN(C)C(=O)[C@H](O)[C@H](Cc1ccccc1)NC(=O)c1cc2cc(Cl)ccc2[nH]1
    i	-0.62
CN(C)c1ccc2ncc(=O)n(C)c2n1
    i	0.65
COc1ccc(NS(=O)(=O)c2sc3ccc(Cl)cc3c2C)cc1N1CCNCC1
    i	-0.97
CCOC(=O)NNc1nncc2ccccc12
    i	-0.68
NCCNC(=O)c1ccc(Cl)cn1
    i	0.26
CCCCOc1ccc(CC(=O)NO)cc1
    i	-3.44
COc1c(O)cc2c(c1O)[C@H]1O[C@H](CO)[C@@H](O)[C@H](O)[C@@H]1OC2=O
    i	0.24
COc1ccc(-n2[nH]c3c(cnc4ccccc43)c2=O)cc1
    i	1.32
CCC(=O)O[C@]1(C(=O)SCF)[C@H](C)C[C@H]2[C@@H]3C[C@H](F)C4=CC(=O)C=C[C@]4(C)[C@@]3(F)[C@@H](O)C[C@@]21C
    i	0.27&0.61
OCc1ccccn1
    i	0.13
CCc1c2c(nc3ccc(OC(=O)N4CCC(N5CCCCC5)CC4)cc13)-c1cc3c(c(=O)n1C2)COC(=O)[C@]3(O)CC
    i	0.34&0.7&0.4
Cc1cccc(Nc2cc(Cl)nc(SCC(=O)O)n2)c1C
    i	0.75&0.42
N#CCCSc1nnc2sc3ccccc3n12
    i	0.52
O=C(O)C(O)C(O)C(O)C(O)C(=O)O (stereo not given) (tested in a mixture with another compound)
    i	0.6
O=C1CSC(c2ccc3cccc(O)c3n2)N1c1ccc(Cl)cc1 (stereo not given)
    i	1.74
CCc1nc(-c2cccc(C)c2)c(-c2ccnc(NC(=O)c3ccccc3)c2)s1
    i	0.52
CC[C@]1(O)C[C@@H]2CN(CCc3c([nH]c4ccccc34)[C@@](C(=O)OC)(c3cc4c(cc3OC)N(C)[C@H]3[C@@](O)(C(=O)OC)[C@H](OC(C)=O)[C@]5(CC)C=CCN6CC[C@]43[C@@H]65)C2)C1
    i	0.82
CCc1cncnc1N1CCN(Cc2nc3ccc(C(F)(F)F)cc3[nH]2)CC1
    i	0.5&0.29
Cc1nn(-c2ccc(-c3ccccc3)nn2)c(C)c1S(=O)(=O)N1CCN(C(C)C)CC1
    i	0.83
C[C@@H]1C[C@H]2[C@@H]3C[C@H](F)C4=CC(=O)C=C[C@]4(C)[C@@]3(F)[C@@H](O)C[C@]2(C)[C@@]1(O)C(=O)COC(=O)C(C)(C)C
    i	0.71
O=C(Nc1cccc2c1CCCC2)C1CCN(S(=O)(=O)c2cccc3nonc23)CC1
    i	0.73
CCCS(=O)(=O)c1nc2ccc(NS(=O)(=O)c3ccc(Cl)cc3)cc2s1
    i	-0.44
Nc1ncnc2nc[nH]c12
    i	0.62

The list continues.
Below each compound – Choline anaer gr	Choline anaer gr early
CCn1cc(C(=O)O)c(=O)c2cc(F)c(N3CCNCC3)nc21
    i	-2.23&-2.36
NC(N)=NCCCC(N)C(=O)O (stereo not given)
    i	0.52
O=C(NC1CCCc2ccccc21)C1CCN(Cc2noc(-c3ccc(F)cc3)n2)CC1 (stereo not given)
    i	-0.24
Cc1cc(-c2nnc3sc(COc4ccc(F)cc4)nn23)n[nH]1
    i	0.1
CC(=O)O[C@@]12COC1CC(O)[C@@]1(C)C(=O)C(O)C3=C(C)C(OC(=O)C(O)C(NC(=O)OC(C)(C)C)c4ccccc4)C[C@](O)(C(OC(=O)c4ccccc4)C21)C3(C)C (stereo not given in full)
    i	-0.24
Nc1c2c(nc3ccccc13)CCCC2O (stereo not given)
    i	0.54&0.37&0.8
CC(=O)Nc1ncc([N+](=O)[O-])s1
    i	-2.6&-3.08
c1ccc(C(OC2CCN(CCCc3nn[nH]n3)CC2)c2ccccc2)cc1
    i	0.82
Cc1sc(C)c(S(=O)(=O)N2CCC(C)CC2)c1-c1cc(C(F)(F)F)on1
    i	0.86
CN(C)CC(=O)Nc1ccc2[nH]c(=O)c3ccccc3c2c1
    i	-0.5

Not all compounds are listed. The share of hits here may be higher or lower than overall.
